TRPML1 inh: inhibitors of human TRPML1 channel | TRPML1-inducible cells, Ca2+ dye fluorescence, FDSS; stronger effect = lower value; inhibition of EC80 agonist-evoked calcium signal | activity change, negative = inhibition, % (no concentration beside the values) | AID 624415 | Q9GZU1 | hit rate 0.02% among 390,000; in the data active means activity change below about -50%; inconclusive means about -30% to -50%; inactive means above about -30%;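 further: stimulus is agonist 54-4 at its EC80 concentration; on the % scale 0 is the no-effect control and ±100 the full control effect; compound concentration not given in the record; the text of the record puts the active cut at -80%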
Target sequence (Q9GZU1 whole entry, looked up): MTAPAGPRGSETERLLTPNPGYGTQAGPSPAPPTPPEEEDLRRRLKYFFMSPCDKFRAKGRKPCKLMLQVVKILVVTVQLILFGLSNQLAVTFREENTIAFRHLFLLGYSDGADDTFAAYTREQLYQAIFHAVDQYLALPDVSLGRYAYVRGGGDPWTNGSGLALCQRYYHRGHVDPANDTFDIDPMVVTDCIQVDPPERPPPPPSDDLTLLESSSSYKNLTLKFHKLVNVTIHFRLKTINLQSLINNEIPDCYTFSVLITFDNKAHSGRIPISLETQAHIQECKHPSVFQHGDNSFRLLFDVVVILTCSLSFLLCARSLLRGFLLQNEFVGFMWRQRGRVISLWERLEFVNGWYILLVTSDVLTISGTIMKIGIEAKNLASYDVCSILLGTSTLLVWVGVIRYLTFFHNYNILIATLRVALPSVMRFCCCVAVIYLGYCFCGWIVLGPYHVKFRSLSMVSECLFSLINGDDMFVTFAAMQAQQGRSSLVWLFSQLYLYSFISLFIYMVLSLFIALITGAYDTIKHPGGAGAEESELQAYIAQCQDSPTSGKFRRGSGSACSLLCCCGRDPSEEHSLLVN
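TRPML1-DL cells, Tet-induced overnight (~16 h, 37 °C) at 1,500 cells/well, were loaded with Ca8 no-wash dye plus quencher for 45-90 min at room temperature. Compounds were pinned during FDSS kinetic reading; agonist 54-4 at EC80 (4 uM final) then added.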
PINK1 expr mod: PINK1 expression modulation; hit rate 0.2% among 410,000; Potency, µM (top dose mostly 76.6 µM), for the others: at the top dose activation (PINK1 increase), actives largely listed as activators; PINK1 immunofluorescence, high-content cytometry, 24 h; AID 624263; active = well fitted activation curve with a large enough effect; inconclusive = small, poorly fitted or top-dose-only effect; inactive = flat fitted curve, though single readings scatter; cell line not stated here;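 further: potency means the concentration at half of the fitted maximal effect; % of control where 0% means no effect; nearly all actives have a fitted effect of over 65% in size; a mitochondrial uncoupler was the plate control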
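A stable cell line was treated with compounds at 5 concentrations for 24 hours, with CCCP as control. PINK1 levels and mitochondrial localization were measured by immunofluorescence with mitochondrial, cell and nuclear markers after fixation, read by laser-scanning cytometry.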
Sfp inh: inhibitors of Bacillus subtilis Sfp phosphopantetheinyl transferase; Q9F4F7; Biochemical Sfp PPTase activity, qHTS; Potency, µM, for the others: max response, negative = inhibition, hits mostly inhibitors; hit rate 3.5% among 310,000; active means well fitted inhibition curve with a large enough effect; inconclusive means small, poorly fitted or top-dose-only effect, or another doubt; inactive means no such curve, though single readings can be large or run the other way;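 further: the enzyme is Sfp with the accession as filed and its product quenches rhodamine fluorescence; potency means the concentration at half of the fitted maximal effect; 0% = enzyme reaction without inhibitor and -100% = no enzyme wells; top concentration of the series not given in the record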
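With Hepes-Na pH 7.6 buffer containing 10 mM MgCl2, Sfp (15 nM) modified BHQ-2-YbbR (12.5 uM) using rhodamine-CoA (5 uM). Two reads 30 minutes apart at 525/598 nm yielded each well's rate.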
TRPV1 potentiator: potentiators of human vanilloid receptor 1 (TRPV1) | potentiation, % at 8.33 µM | hit rate 0.02% among 320,000 | Q8NER1 | TRPV1-expressing cells, Fluo-8 calcium influx, capsaicin EC20 potentiation; host cell line not named in the record; control for the full effect not named in the record; active means potentiation above 80%; inconclusive means 30% to 80%; inactive means below 30%; further: 0% is about no effect
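TRPV1-expressing cells were cultured overnight at 35.5C and loaded with Fluo-8 calcium dye for 40 to 90 min at room temperature. After a 10 s baseline, compound was added and calcium influx was read kinetically for 3 min (ex 480/em 520 nm).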
Menin MLL FP FL: inhibitors of human menin-MLL interaction, wild-type MLL peptide. FP activity change, % at 61.4 µM. AID 1766. 290,000 tested, under 10 active. Fluorescence polarization, fluorescein-MLL peptide displacement from menin; inconclusive = falling polarisation curve, or a change in total fluorescence; inactive = total fluorescence flat and polarisation flat or rising; no compound was filed as active; the % refers to the polarisation; negative = inhibition;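 further: % of control where 0% means no effect; inhibitors lower the polarisation; unlabelled MLL peptide was the positive control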
ClpP mod: qHTS Assay for Activators of ClpP; purified B. subtilis ClpP, FRET peptide cleavage, 20 min; AID 651965, 2013; Potency, µM (highest dose often 57.5 µM), for inactives: at the highest dose activity change, negative = active; hit rate 1.9% among 340,000; active = well fitted falling curve with a large enough effect; inconclusive = small, poorly fitted or top-dose-only effect; inactive = no such curve, though single readings can be large or run the other way; further: potency means the concentration at half of the fitted maximal effect; the source files actives as falling curves though it sought activators and does not explain the sign; nearly all actives have a fitted effect of over 65% in size; many hits overshoot -100%
Target sequence (P80244 whole entry, looked up): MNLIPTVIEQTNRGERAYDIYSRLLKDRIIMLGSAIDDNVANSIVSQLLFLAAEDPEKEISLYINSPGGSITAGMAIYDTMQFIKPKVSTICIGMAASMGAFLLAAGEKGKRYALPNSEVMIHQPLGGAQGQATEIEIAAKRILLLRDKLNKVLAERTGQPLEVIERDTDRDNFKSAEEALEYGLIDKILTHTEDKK
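Purified B. subtilis ClpP, 10 microg/mL final in Tris/HCl pH8 with KCl, BSA, glycerol and Tween-20, cleaved an Abz/nitrotyrosine-quenched decapeptide. Fluorescence (ex 320, em 430) was read at 0 and 20 min at room temperature. Delta was normalized to 5.8 microM ADEP and DMSO/no-enzyme controls.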
TRPML1 agonist: agonists of human TRPML1 channel; Q9GZU1; TRPML1-expressing cells, Ca2+ dye fluorescence, FDSS; host cell line not named in the record; reference of the full effect not given here; hit rate 0.12% among 410,000; activation, % (concentration not given with the values); in the data active = activation above about 50%; inconclusive = about 30% to 50%; inactive = below about 30%; further: 0% is about no effect; the text of the record puts the active cut at 80%
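In this qHTS format, compounds were pin-transferred onto Ca8-dye-loaded TRPML1-DL cells induced with Tet overnight, and intracellular Ca2+ fluorescence was recorded kinetically for 110 s after a 10 s baseline. A subsequent 4uM final 54-4 (EC80) addition followed by a second 110 s read served as the antagonist phase.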
Numbers without * were called inactive; [ ] = remark or other dose.

COCCN(Cc1cc2cc3c(cc2nc1Cl)OCO3)C(=O)Nc1ccc(OC)cc1 was read as TRPML1 inh 0, PINK1 expr mod 2.5%, Sfp inh -2%, TRPV1 potentiator -7, Menin MLL FP FL 6.9, ClpP mod 0.6% and TRPML1 agonist 0.8.
Screening CC(OC(=O)c1cccc(S(=O)(=O)N2CCCCCC2)c1)C(=O)Nc1ccc(S(N)(=O)=O)cc1 (stereo not given) returned TRPML1 inh -7, PINK1 expr mod 0.6%, TRPV1 potentiator -5, ClpP mod -2.7% and TRPML1 agonist -0.4.
For COCc1nc(-c2cc(Br)ccc2OC)no1 the results were TRPML1 inh 31, PINK1 expr mod -1.2%, Sfp inh 9%, TRPV1 potentiator -27, Menin MLL FP FL -2.4, ClpP mod 0.6% and TRPML1 agonist 1.0.
Screening CCNc1nc(NCc2ccccc2)nc(SCC(=O)Nc2ccccc2)n1 returned TRPML1 inh 69, PINK1 expr mod inconclusive, Sfp inh -3%, TRPV1 potentiator 23, Menin MLL FP FL 5.4, ClpP mod -2.2% and TRPML1 agonist 3.8.
Screening O=C(CSc1nnc(-c2ccncc2)n1CC1CCCO1)Nc1nccs1 (stereo not given) returned TRPML1 inh 5, PINK1 expr mod -0.8%, Sfp inh 16%, TRPV1 potentiator 0, Menin MLL FP FL 2.5, ClpP mod 1.1% and TRPML1 agonist 1.1.
`CCOc1ccccc1OCCCC(=O)Nc1ccc(OC)nc1` gave TRPML1 inh 15, PINK1 expr mod -5.1%[38.3 µM], Sfp inh 4%, TRPV1 potentiator -10, Menin MLL FP FL 1.4, ClpP mod 0.4% and TRPML1 agonist -0.1.
Screening CCCCn1c(N)c(N(CC(C)C)C(=O)c2oc3ccc(Br)cc3c2C)c(=O)[nH]c1=O returned TRPML1 inh 7, PINK1 expr mod -0.3%, TRPV1 potentiator -4 and TRPML1 agonist 0.2.
`COc1cc(NC(=O)c2ccco2)c(OC)cc1NC(=O)CSc1nnc(-c2cccs2)n1C` gave TRPML1 inh 1, PINK1 expr mod inconclusive, Sfp inh -21%, TRPV1 potentiator 0, Menin MLL FP FL 2.4, ClpP mod 27% and TRPML1 agonist -0.6.
Cc1ccc(CCNC(=O)CSCc2ccc(F)cc2)cc1 was read as TRPML1 inh 0, PINK1 expr mod -1.4%, Sfp inh 6%, TRPV1 potentiator -9, Menin MLL FP FL 4.1 and TRPML1 agonist 0.6.
Screening Cc1ccc(C(=O)c2ccccc2C(=O)O)cc1C returned TRPML1 inh 13, PINK1 expr mod 1.3%, Sfp inh 8%, TRPV1 potentiator 0, Menin MLL FP FL -0.4, ClpP mod -3.2% and TRPML1 agonist -0.5.

Continued, starting with the last two of the part before.
Cc1ccc(CCNC(=O)CSCc2ccc(F)cc2)cc1 was read as TRPML1 inh 0, PINK1 expr mod -1.4%, Sfp inh 6%, TRPV1 potentiator -9, Menin MLL FP FL 4.1 and TRPML1 agonist 0.6.
Screening Cc1ccc(C(=O)c2ccccc2C(=O)O)cc1C returned TRPML1 inh 13, PINK1 expr mod 1.3%, Sfp inh 8%, TRPV1 potentiator 0, Menin MLL FP FL -0.4, ClpP mod -3.2% and TRPML1 agonist -0.5.
Screening CCNc1ccc(C(=O)OCC(=O)NC(=O)NCC(C)C)cc1[N+](=O)[O-] returned TRPML1 inh -7, PINK1 expr mod 7.6%, Sfp inh 3%, TRPV1 potentiator 13, Menin MLL FP FL -1.8 and TRPML1 agonist 3.2.
`O=C(NCCOc1ccccc1)C1CCC(=O)N(CCCN2CCCC2=O)C1` (stereo not given) gave TRPML1 inh -6, PINK1 expr mod 0.9%, Sfp inh 13%, TRPV1 potentiator -2, ClpP mod -1.6% and TRPML1 agonist -0.2.
For CCN(CC)CCCNC(=O)c1nn(-c2ccc(OC)c(Cl)c2)c(=O)c2c1c1ccccc1n2C the results were TRPML1 inh 22, PINK1 expr mod 1.0%, ClpP mod -7.7% and TRPML1 agonist -0.8.
CCCCCn1c(=O)[nH]c2cc(C(=O)NCCN3CCOCC3)ccc2c1=O was read as TRPML1 inh 22, PINK1 expr mod -2.3%, ClpP mod 28µM* and TRPML1 agonist -0.5.
`c1ccc(COCCN2CCN(CCOCc3ccccc3)CC2)cc1` gave TRPML1 inh -3, PINK1 expr mod -2.5%[38.3 µM], Sfp inh 19%, TRPV1 potentiator -10, Menin MLL FP FL 1.8, ClpP mod -1.9% and TRPML1 agonist -0.2.
For OCCNC1=NCCN1 the results were TRPML1 inh -16, PINK1 expr mod 0.3%, Sfp inh 5%, TRPV1 potentiator -9, Menin MLL FP FL 0.9, ClpP mod 32µM* and TRPML1 agonist 0.3.
For N=C1C(=O)OCC1c1cc(Cl)ccc1NC(=O)Nc1ccccc1 (stereo not given) the results were TRPML1 inh 11, Sfp inh 21%, TRPV1 potentiator -1, Menin MLL FP FL -1.2, ClpP mod -18% and TRPML1 agonist 0.9.
`COc1cccc(CN(C)C(=O)c2cccc(OCc3ccccc3)c2)c1` gave TRPML1 inh 5, PINK1 expr mod 0.4%, Sfp inh -28%, TRPV1 potentiator -10, Menin MLL FP FL -1.3, ClpP mod -4.5% and TRPML1 agonist 0.8.
`CC1CCCCC1NC(=O)CSc1nnc(-c2ccncc2)n1CCCN(C)C` (stereo not given) gave TRPML1 inh 10, PINK1 expr mod 1.8%, Sfp inh -20%, TRPV1 potentiator 7, Menin MLL FP FL 1.9 and TRPML1 agonist 0.3.
Screening O=C(NCCCN1CCOCC1)c1c(-c2ccccc2)sc2ccccc12 returned TRPML1 inh 4, PINK1 expr mod -0.4%, ClpP mod -0.5% and TRPML1 agonist -0.7.
Screening COC(=O)c1ccc(OC)c(Cn2c(=O)n(-c3cccc(Cl)c3)c(=O)c3c4c(sc32)CN(C(C)=O)CC4)c1 returned TRPML1 inh 22, PINK1 expr mod 1.1%, ClpP mod 2.6% and TRPML1 agonist -1.0.
COc1ccc(NS(=O)(=O)c2cc(NC(=O)/C=C/c3cc(OC)c(OC)c(OC)c3)ccc2N2CCCCC2)cc1 was read as TRPML1 inh 0, PINK1 expr mod 3.6%, Sfp inh 16%, TRPV1 potentiator -2, Menin MLL FP FL 2.2, ClpP mod -8.6% and TRPML1 agonist -0.3.
Screening COc1cccc(NC(=O)N2CCC(C(N)=O)(N3CCCCC3)CC2)c1 returned TRPML1 inh -14, PINK1 expr mod 0.5%, Sfp inh 25%, TRPV1 potentiator -1, Menin MLL FP FL -0.4, ClpP mod -21% and TRPML1 agonist -0.3.
`CCc1nc2ccc(C(=O)Nc3ccc(OC)c(OC)c3)cn2c1N(C)Cc1ccc(OC)cc1` gave PINK1 expr mod -1.2%, ClpP mod 1.8% and TRPML1 agonist -0.9.
Screening COc1ccccc1NC(=O)c1cc2ccccc2o/c1=N\O returned TRPML1 inh 4, PINK1 expr mod 2.5%, Sfp inh 50µM*, TRPV1 potentiator -15, Menin MLL FP FL 0.2, ClpP mod -5.1% and TRPML1 agonist -0.9.
`Cc1ccc(C)c(N2CCN(C(=O)c3ccc4c(=O)n(CCc5ccccc5)c(=O)[nH]c4c3)CC2)c1` gave TRPML1 inh 46, PINK1 expr mod 1.1%, ClpP mod -2.1% and TRPML1 agonist -0.7.
Screening CC(=O)c1ccc(N2CCN(C(=O)c3ccc(NC(=O)C4CCCO4)cc3)CC2)cc1 (stereo not given) returned TRPML1 inh -21, PINK1 expr mod -1.6%, Sfp inh 7%, TRPV1 potentiator 0, Menin MLL FP FL 1.3, ClpP mod -16% and TRPML1 agonist 0.0.
For CCc1nn(CC(=O)NCCCN2CCOCC2)c(=O)c2cc3sccc3n12 the results were TRPML1 inh -3, PINK1 expr mod -0.3%, Sfp inh 17%, TRPV1 potentiator 22, ClpP mod -1.1% and TRPML1 agonist -0.5.
`O=C(N/N=C/c1ccc(Cl)cc1Cl)C(=O)NC1CC1` gave TRPML1 inh 1, PINK1 expr mod -1.3%, Sfp inh 14%, TRPV1 potentiator 2, Menin MLL FP FL -0.9 and TRPML1 agonist -0.1.
Cc1nc(N2CCOCC2)c2c(C(=O)NCCc3ccccc3)c(C)oc2n1 was read as TRPML1 inh -16, PINK1 expr mod 5.4%, ClpP mod -3.8% and TRPML1 agonist 1.2.
For CCOc1ccc(C2=Nn3c(nnc3-c3ccccc3OC)SC2)cc1 the results were TRPML1 inh 14, PINK1 expr mod -1.7%, Sfp inh -11%, TRPV1 potentiator -12, Menin MLL FP FL 4.1, ClpP mod -0.8% and TRPML1 agonist 2.7.
CCOC(=O)N(C)C[C@H]1OCc2cnnn2CCCC(=O)N([C@@H](C)CO)C[C@@H]1C was read as TRPML1 inh 18, PINK1 expr mod -1.5%, ClpP mod 2.6% and TRPML1 agonist 0.5.
Cc1ccc(NC(=O)C(C)N2CCc3ccccc3C2)cc1 (stereo not given) was read as TRPML1 inh -11, PINK1 expr mod 0.6%, Sfp inh 15%, TRPV1 potentiator -8 and TRPML1 agonist 1.9.
Screening Cc1cccc2cc(-c3ccccc3)c(-c3ccccc3)c[n+]12 returned TRPML1 inh 15, PINK1 expr mod inconclusive, Sfp inh -4%, TRPV1 potentiator 0, Menin MLL FP FL 3.8, ClpP mod -13% and TRPML1 agonist -0.8.
`O=C(COC(=O)CNC(=O)c1ccc(Cl)cc1Cl)Nc1ccc(N2CCOCC2)cc1` gave TRPML1 inh 9, PINK1 expr mod -0.8%, Sfp inh 6%, TRPV1 potentiator -1, Menin MLL FP FL -5.7 and TRPML1 agonist 0.3.
Screening CC1(C)C(=O)OC(C(=O)c2ccc(C(C)(C)C)cc2)C(C)(C)C1=O (stereo not given) returned TRPML1 inh 29, PINK1 expr mod 0.8%, Sfp inh 10%, TRPV1 potentiator -8, Menin MLL FP FL 1.8, ClpP mod 32µM* and TRPML1 agonist 0.7.
Cc1ccc(-n2nnnc2SC(C)C(=O)NCC(=O)Nc2ccc(F)c(F)c2F)c(C)c1 (stereo not given) was read as TRPML1 inh -5, PINK1 expr mod 0.7%, Sfp inh -7%, TRPV1 potentiator -15, Menin MLL FP FL 5.4, ClpP mod 0.7% and TRPML1 agonist -0.7.

Screening results deposited in PubChem BioAssay by National Center for Advancing Translational Sciences (NCATS).
